MgrA-DNA mod: modulators of Staphylococcus aureus MgrA DNA binding | fluorescence polarization | inhibition, %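 (about 10 µg/mL by stock and volumes)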 | 84,000 compounds, 0.13% hits | AID 602314;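 active means above 50% in either of two replicates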;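 further: 0% = protein plus DNA without compound and 100% = DNA alone without protein; higher means less MgrA bound to DNA so lower polarization; one replicate is shown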
Sa helicase inh: S. aureus DNA helicase inhibition; purified S. aureus helicase, fluorescence unwinding assay; about half of the hits fall short of the stated cut; inhibition, %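 (tested at about 80 µM)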; 120,000 compounds, 0.05% hits; AID 485395;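 active means both duplicates at 50% or more, or one of them with a favoured structure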;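 further: 0% = mean of negative control wells and 100% = mean of positive control wells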
Numbers without * were called inactive; nt = not tested or not shown. These rows are one share of the data; rates above refer to the full screens.

SMILES	MgrA-DNA mod	Sa helicase inh
Cc1ccc(S(=O)(=O)Nc2ccc(OCc3cc(=O)n4ccsc4n3)cc2)cc1	nt	10.0
N#CC(=Nc1ccc2c(c1)OCCO2)C1=C(O)c2ccccc2C1=O	8.9	nt
CS(=O)(=O)N1CCc2ccccc2C1	-0.8	nt
N#Cc1ccc(OCC(O)CN2CCC(O)CC2)cc1 (centres undefined)	nt	-2.0
CC1CCCC(C)N1C(=O)COC(=O)C12CC3CC(CC(C3)C1)C2 (centres undefined)	-2.9	2.0
COc1ccc(N2C(=O)CC(N(Cc3ccc4c(c3)OCO4)C(=O)c3cccc(F)c3)C2=O)cc1 (centres undefined)	nt	8.0
COc1ccc2ncc(OC(C)=O)cc2c1	nt	4.0
C/C(Cl)=C/CN1CCOCC1	nt	19.0
CC(=O)Nc1cccc(N=Cc2cc(I)cc(C)c2O)c1	6.0	7.0
Cc1c(NC(=S)N2c3ccccc3CC2C)c(=O)n(-c2ccccc2)n1C (centres undefined)	nt	6.0
COCC(C)N=CC1=C(O)CC(C)(C)CC1=O (centres undefined)	1.1	7.0
COc1ccc(NC(=O)Cc2nc(-c3ccc(OC)cc3)no2)cc1	nt	17.0
O=C(c1ccccc1)N1CCn2c1nc1ccccc12	-1.0	16.0
CNC(=O)c1c2c(nc3ccc(Br)cc13)CCCC2	-4.4	-21.0
CN(C)c1ccc(C2CC(c3ccc(Br)cc3)=NN2C(=O)CCCC(=O)O)cc1 (centres undefined)	-1.5	nt
CN(Cc1nc(-c2ccccc2)no1)C(=O)CSc1ccccc1	-1.1	-1.0
O=C(COC(=O)c1cccs1)Nc1ccccc1C(F)(F)F	1.1	-3.0
OC(CNCc1csc2ccccc12)c1ccccc1 (centres undefined)	-1.9	nt
Oc1ccc(/C=N/N2CCN(Cc3cccc4ccccc34)CC2)cc1O	nt	10.0
CC1(CSc2ccccc2C(=O)Nc2nc3ccccc3[nH]2)NC(=O)NC1=O (centres undefined)	nt	-14.0
N#CCSc1nnc2n(-c3ccccc3)c(=O)c3ccccc3n12	nt	12.0
Nc1nc(NCc2c(Cl)cccc2Oc2ccccc2)n[nH]1	-1.5	nt
O=C(O)c1ccc(CNCc2cccc(Oc3ccccc3)c2)cc1	0.6	19.0
CCn1cc(C(=O)OC)c(=O)c2ccc(C)nc21	nt	-28.0
CCS(=O)(=O)c1cccc(C(=O)Nc2nnc(-c3ccc4c(c3)OCCO4)o2)c1	nt	6.0
O=C(CSc1nnc(Cc2ccccc2)o1)C12CC3CC(CC(C3)C1)C2	nt	2.0
O=C(Cc1ccccc1)Nc1ccncc1	-1.2	5.0
CN(CCCN)Cc1ccccc1	nt	-12.0
N#C/C(=N\O)C(=O)c1ccco1	-8.6	nt
CCc1sc2sncc2c1Br	-0.4	2.0
O=C(c1ccc(F)cc1)C1CCNCC1	-1.3	nt
O=C(Nc1nccs1)c1ccncc1	-0.6	nt
O=C(Cc1ccccc1)c1ccccc1C(=O)NCc1ccc(F)cc1	-0.2	-7.0
CC(C)(C)C(=O)NS(=O)(=O)c1ccccc1	nt	-6.0
O=S(=O)(NC1CCc2ccccc21)c1ccc(-n2cnnn2)cc1 (centres undefined)	nt	-10.0
CCNS(=O)(=O)c1cccc2c(N)cccc12	-1.9	nt
Cc1ccccc1-c1ncc(-c2ccc(Br)cc2)o1	0.8	nt
Nc1ncc(Cc2cccc(Cl)c2)s1	-3.2	10.0
O=C(CCS(=O)(=O)c1ccccc1)N1CCN(c2ccccc2)CC1	nt	17.0
C(=N\c1ncn[nH]1)/c1ccccc1	1.0	7.0
O=C(Cc1csc2nc(-c3ccccc3)cn12)N1CCc2ccccc21	nt	8.0
COc1cc(C(SCC(=O)O)SCC(=O)O)cc(OC)c1OC	0.3	nt
COc1ccc(Br)c(-c2nnc(CS(=O)(=O)c3ccccc3)o2)c1	nt	-7.0
O=C(NO)c1sc2ccccc2c1Cl	nt	8.0
CCOC(=O)c1ccc2nc(CCC(=O)NC3CCC(C)CC3)c(=O)n(CC)c2c1 (centres undefined)	nt	15.0
O=C(OC1CS(=O)(=O)CC1OC(=O)c1ccccc1)c1ccccc1 (centres undefined)	-2.6	12.0
O=C(Nc1nc(-c2ccc3c(c2)OCO3)cs1)C1CC1	nt	20.0
O=C(O)c1ccc(NCc2cccnc2)cc1	-3.5	10.0
N#CC1=C(N)N(c2ccccc2)C2=C(C(=O)CCC2)C1c1ccccc1 (centres undefined)	-2.0	5.0
O=C(CSC1CCS(=O)(=O)C1)OCc1c(Cl)cccc1Cl (centres undefined)	nt	11.0

(further entries)
SMILES	MgrA-DNA mod	Sa helicase inh
O=C(c1ccc2snnc2c1)N1CCOCC1	0.4	nt
O=C1CCCC(Cn2cncn2)C1 (centres undefined)	-2.5	5.0
Cc1ccc(C=N/C(C#N)=C(\N)C#N)cc1	1.8	nt
COc1c(C(=O)O)cnc2cc(Cl)ccc12	-1.5	-4.0
CC1(CC(=O)N=Nc2c(O)[nH]c3ccccc23)OCCO1	nt	-9.0
CCn1c(CN2CCCCCC2=O)n[nH]c1=S	nt	6.0
COC(=O)c1scc(C)c1NC(=O)CSc1ccc(Cl)cc1	-0.7	nt
Cc1nn(C)c(C)c1NC(=O)/C(C#N)=C\N(C)C	nt	21.0
CCOc1cc(C(=O)NCCc2cc3c(C)ccc(C)c3[nH]c2=O)cc(OCC)c1OCC	nt	13.0
CC1=C(C(=O)Nc2ccc(C)cc2)C(c2ccc(Cl)cc2Cl)NC(=O)N1 (centres undefined)	1.4	nt
CCOc1ccc(NC(=O)CSCCn2c(C)csc2=O)cc1	nt	-8.0
C=CCN(c1ccc(C(=O)Nc2ccc3c(c2)OCO3)cc1)S(C)(=O)=O	0.1	21.0
C=CCSc1nnc(-c2cc(OCC(F)(F)F)nc(OCC(F)(F)F)c2)n1Cc1ccco1	nt	-15.0
CCOc1ccc2nc(SCC(=O)N(C)C3CCCCC3)c(C#N)cc2c1	2.6	-1.0
C=CCn1c(N)cc(=O)nc1SC(C)C(=O)Nc1ccc(C)cc1 (centres undefined)	1.1	-3.0
CN(CC(=O)Nc1ccc2[nH]c(=O)[nH]c2c1)Cc1ccccc1	nt	2.0
CCCc1noc2c1/C(=N\O)CC(C)(C)C2	-4.7	16.0
Cc1ccc(OC(=O)CCC(=O)N2CCN(C(=O)CCC(=O)Oc3ccc(C)cc3)CC2)cc1	-6.0	0.0
OC1(c2ccc(Br)cc2)CN(c2ccccc2)C2=[N+]1CCCS2 (centres undefined)	-1.6	-11.0
CCNc1ncnc2c1cnn2C	nt	5.0

Nothing new here: five of the compounds above.
SMILES	MgrA-DNA mod	Sa helicase inh
CCOc1ccc2nc(SCC(=O)N(C)C3CCCCC3)c(C#N)cc2c1	2.6	-1.0
C=CCn1c(N)cc(=O)nc1SC(C)C(=O)Nc1ccc(C)cc1 (centres undefined)	1.1	-3.0
CN(CC(=O)Nc1ccc2[nH]c(=O)[nH]c2c1)Cc1ccccc1	nt	2.0
CCCc1noc2c1/C(=N\O)CC(C)(C)C2	-4.7	16.0
Cc1ccc(OC(=O)CCC(=O)N2CCN(C(=O)CCC(=O)Oc3ccc(C)cc3)CC2)cc1	-6.0	0.0

(cont.)
SMILES	MgrA-DNA mod	Sa helicase inh
CC(SCC(=O)O)c1nc2ccccc2[nH]1 (centres undefined)	nt	34.0
Cc1ccc(/C=C2/C(=O)N=C(N)N2C)s1	5.8	14.0
CCN(CC)S(=O)(=O)c1ccc(C(=O)Nc2cccc(C)c2)cc1	-0.5	-20.0
CCSc1nc2c(c(=O)n1-c1ccc(F)cc1)SCC2	nt	7.0
CC(C)(C)c1nc2c(o1)NC(N)=C(C(N)=O)C2c1ccc(OCC#N)cc1 (centres undefined)	-1.2	5.0
CN(CC(=O)O)S(=O)(=O)c1ccc2c(c1)OCCO2	nt	12.0
CCNc1nc(NCC)nc(Oc2ccc(=O)[nH]n2)n1	1.5	11.0
O=C(Nc1ccccc1Cl)c1ccccc1O	nt	5.0
CSC(=NC12CC3CC(CC(C3)C1)C2)NN	-1.8	nt
COc1cc(C2=N/C(=C\c3cccc(Br)c3)C(=O)O2)cc(OC)c1OC	0.2	nt
NC(N)=Nc1nc(=O)c2ccccc2s1	3.4	7.0
CC(C)Cc1cc(C(=O)O)nc(=O)[nH]1	3.2	-9.0
c1ccc(C2=NNC(c3nc4ccccc4[nH]3)C2)cc1 (centres undefined)	5.5	1.0
O=C1Nc2ccccc2C1=NC1CCS(=O)(=O)C1 (centres undefined)	nt	-17.0
CCOC(=O)C1C(c2cccs2)C(C(=O)OCC)C(O)(C(F)(F)F)NC1(O)C(F)(F)F (centres undefined)	-0.4	nt
CCN(CC)S(=O)(=O)c1ccc(Br)cc1	-1.0	-13.0
O=C(ON1C(=O)c2ccccc2C1=O)c1ccco1	14.4	14.0
CN(C)C(=S)SCc1ccc(C(=O)Oc2c(Cl)cccc2Cl)cc1	-1.6	nt
O=C(O)C1Cc2ccccc2N1C(=O)c1ccccc1 (centres undefined)	nt	21.0
O=C(Cn1c(=O)oc2ccccc21)NCC1CCN(Cc2ccccc2F)CC1	nt	6.0
Cc1n[nH]c(C)c1Sc1nnc(C(F)(F)F)n1C	-0.4	nt
CCCn1nnnc1SCC(=O)N1CCCC1	15.4	4.0
COCCn1c(SC)nnc1-c1c[nH]c2ccccc12	nt	14.0
CCc1ccccc1NC(=O)C1CCCN1S(=O)(=O)c1cccc2nsnc12 (centres undefined)	nt	10.0
CN=Cc1cc(-c2ccccc2)oc1S	nt	17.0
O=C(O)CSCC(=O)NC1CCN(Cc2c(F)cccc2Cl)CC1	-1.5	nt
CCOC(=O)C1=C(C)N=c2s/c(=C\c3ccc(N4CCCCC4)o3)c(=O)n2C1c1ccc(OC)cc1OC (centres undefined)	1.3	nt
CC(=O)[C@@]1(O)CCC2C3C[C@H](C)C4=CC(=O)C=CC4(C)[C@@]3(F)[C@@H](O)C[C@@]21C (some centres undefined)	2.1	nt
O=C1CSC(c2cc3c(cc2[N+](=O)[O-])OCO3)N1c1ccc(Br)cc1 (centres undefined)	-1.6	nt
OCC12CC3CC(C1)CC(CO)(C3)C2	-1.6	10.0
O=C1/C(=C/c2ccccc2)CCc2ccccc21	4.2	nt
O=C(CCC(=O)N1CCSc2ccccc21)NCc1cccs1	nt	31.0
O=C(OCCN1C(=O)c2cccc3c(N4CCOCC4)ccc(c23)C1=O)c1ccc(S(=O)(=O)N2CCOCC2)cc1	-2.2	nt
C=CCn1c(=O)/c(=C\c2ccccn2)s/c1=C(/C#N)C(=O)NCC1CCCO1 (centres undefined)	nt	-17.0
Cc1cc(C(=O)CSC#N)ccc1Cl	-8.6	nt
CC(C)Sc1nc2ccccc2n2cnnc12	-0.2	5.0
Nc1nc(N)nc(CSc2nnc(-c3ccccc3)n2-c2ccc(F)cc2)n1	nt	-3.0
COc1ccc(Br)cc1CN1CCN(C2CCCCCC2)CC1	1.9	5.0
CC(C)(C)c1ccc(-c2nc(-c3cccnc3)no2)cc1	nt	-4.0
COc1cccc(/C=C2/SC(=Nc3cc(C)cc(C)c3)NC2=O)c1O	-0.2	nt
O=C(CN1CCOc2ccccc21)N1CCC2(CC1)OCCO2	nt	0.0
COc1ccc(C2CC(c3cc(Cl)ccc3O)=NN2)cc1OC (centres undefined)	-1.2	6.0
CC(=O)N1c2ncnn2C(c2ccc(Cl)cc2)CC1c1ccccc1 (centres undefined)	2.0	6.0
Clc1ccc(-c2csc(Cc3ccccc3Cl)n2)cc1	-3.8	nt
CCN(CC)S(=O)(=O)c1ccc2c(c1)CCCN2	nt	-7.0
CCNC(=O)Nc1nc2ccccc2s1	0.0	-15.0
N#Cc1c(NC(=O)CSc2ccccn2)sc2c1CCCC2	3.1	19.0
O=C(O)c1ccc(N2C(=O)CSC2=S)cc1	nt	-8.0
Cc1ccc2c(c1)N(CC(=O)N(Cc1cccnc1)C1CCCC1)C(=O)C(C)O2 (centres undefined)	2.1	5.0
O=C(CC1(O)OC(c2ccccc2)=CC1=O)c1ccccc1 (centres undefined)	4.8	1.0

(further entries)
SMILES	MgrA-DNA mod	Sa helicase inh
Cc1ccnc(-n2c(C)ccc2C)c1	-2.2	nt
CC(Nc1nc2ccccc2s1)C(=O)NN (centres undefined)	nt	9.0
CCCCC(=O)NC1=NC(=O)C(C)(C)S1	0.8	26.0
O=c1[nH]c2c(s1)C1c3c(ccc4ccccc34)OCC1CS2 (centres undefined)	nt	24.0
CN(C)c1cccc(C(=O)OCc2c(F)cccc2Cl)c1	nt	4.0
COC(=O)CCNc1ccc(Cl)cc1	-4.4	nt
COc1ccc(NC(=O)C2CCN(C(=O)C3CC(=O)N(c4ccc(C)cc4)C3)CC2)cc1 (centres undefined)	-2.6	10.0
Cc1cc(C(=O)COc2cc3ccccc3cc2C(=O)N2CCOCC2)c(C)n1Cc1ccco1	nt	14.0
COc1ccccc1CC(=O)NCc1nn(-c2ccccc2)nc1C	-1.3	nt
COc1cccc(NC(=O)C(Sc2nnc3n2CCCCC3)c2ccccc2)c1 (centres undefined)	nt	30.0

Quoted from the listing.
For Sa helicase inh, COc1cccc(NC(=O)C(Sc2nnc3n2CCCCC3)c2ccccc2)c1 (centres undefined) reads 30.0
For Sa helicase inh, Cc1cc(C(=O)COc2cc3ccccc3cc2C(=O)N2CCOCC2)c(C)n1Cc1ccco1 reads 14.0

Continuation.
SMILES	MgrA-DNA mod	Sa helicase inh
COc1ccc(-c2cc(C(F)(F)F)nc(SCCC(=O)NC(C)C)n2)cc1	2.6	7.0
Cc1ccc(P(=Nc2cc(Cl)ccc2Cl)(N2CCOCC2)N2CCOCC2)o1	nt	-2.0
Cc1ccc(CN(C)CC(O)COC(c2ccccc2)c2ccccc2C)o1 (centres undefined)	nt	-6.0
CCOc1ccc(S(=O)(=O)Nc2cc(Cl)c(O)c3ccccc23)cc1	nt	19.0
CCOC(=O)c1nc(COc2ccccc2Cl)[nH]c(=O)c1C	-2.7	nt
CCOC(=O)c1nnc(Cc2ccccc2OC)o1	0.0	13.0
CSc1nc(N)nc(COc2ccccc2Cl)n1	-1.4	nt

Source: PubChem
